Compound activity as filed in PubChem BioAssay.
Vero viability: Vero cell cytotoxicity, dose response, cytotoxicity control for Vif-APOBEC3G degradation inhibitor project, Vero cells (AID 1117358); viability, % at the top dose, mostly 40 µM; hits show CC50 in µM; 2,300 tested, 7% active; Vero viability, CellTiter-Glo ATP luminescence, 72 h; reference of the scale not given here;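 active means viability down to 80% or less at some dose; inactive means above 80% at all doses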
Active calls of the source: *. An excerpt; count on the stated rates, not on these rows.

> Cc1ccc(C)n1-c1sccc1C(=O)O
  Vero viability = 90.2%

> NS(=O)(=O)c1ccc(N2N=C(c3ccc(Br)cc3)CC2c2ccc(F)cc2)cc1 (stereo not given)
  Vero viability = >40µM*

> CC(=O)N1CCCc2cc(S(=O)(=O)N(C)CCC#N)ccc21
  Vero viability = 102.9%

> CCC(=O)Nc1cc(C)c(NC(=O)C23CC4CC(CC(C4)C2)C3)cn1
  Vero viability = 103.0%

> NC(=O)Cn1c(=O)n(Cc2ccco2)c(=O)c2c3c(sc21)CCCCC3
  Vero viability = 116.8%

> Cc1nc(SCC(=O)Nc2ccnc3ccccc23)n[nH]1
  Vero viability = 84.5%

> CN(Cc1nc(-c2cccnc2)no1)S(=O)(=O)c1ccccc1
  Vero viability = 96.8%

> CC(C)(NO)/C(=N\O)c1ccccc1
  Vero viability = 102.8%

> Nc1ncnc2oc(-c3ccco3)c(-c3ccco3)c12
  Vero viability = 90.0%

> Cn1nc(-c2ccc(Cl)cc2)c2cc(C(=O)N3CCN(c4ccccc4)CC3)sc21
  Vero viability = 83.2%

> Cc1nc2nc(COc3ccccc3)[nH]n2c(=O)c1Cc1ccccc1
  Vero viability = 93.0%

> COc1ccc(Cl)cc1N(C)C(=O)CCNC(=O)Cn1cnc2ccccc2c1=O
  Vero viability = 92.5%

> COC(=O)C1=C(C)NC(=O)/C1=C\c1cc(C)n(-c2ccccc2C)c1C
  Vero viability = 90.2%

> Cc1noc(C)c1COc1ccc(C(=O)OCC(=O)N2c3ccccc3NC(=O)C2(C)C)cc1
  Vero viability = 87.8%

> O=C(OCn1ncc(Br)c(Br)c1=O)c1ccc(F)cc1
  Vero viability = 8.69µM*

> CCOc1ccc(N(C(C)C(=O)NC2CCCCCC2)S(C)(=O)=O)cc1 (stereo not given)
  Vero viability = 103.0%

> COc1cc(NC(=O)Cc2ccccc2)cc(OC)c1
  Vero viability = 97.6%

> COC(=O)CSc1nc2cc(C)cc(C)c2cc1C#N
  Vero viability = 101.1%

> COc1ccc(C(=O)n2nc(-c3ccc(Cl)cc3)nc2N)cc1OC
  Vero viability = 97.1%

> Cc1ccc(CCNC(=O)C2CCCN(S(=O)(=O)c3c(C)noc3/C=C/N(C)C)C2)cc1 (stereo not given)
  Vero viability = 101.8%

> CC(C)C(=O)Nc1nnc(Sc2ccc(N(C)C)cc2)s1
  Vero viability = 100.9%

> Cc1ccc(Nc2nc3nonc3nc2N(C)C)cc1
  Vero viability = 88.7%

> N#CC1=C(N)C2=C(N3CCCCC3)CCCC2C1(C#N)C#N (stereo not given)
  Vero viability = 88.4%

> O=C(CCc1ccc(S(=O)(=O)N2CCOCC2)cc1)OCc1nc2ccccc2s1
  Vero viability = 102.8%

> O=c1c2ccccc2c(-c2ccccc2)nn1-c1cc(Cl)ccc1[N+](=O)[O-]
  Vero viability = >40µM*

> Cn1c(=O)cc(NCc2ccccc2)[nH]c1=O
  Vero viability = 85.9%

> CC(C)(Oc1ccc(Cl)cc1)C(=O)NCc1ccco1
  Vero viability = 100.5%

> Cc1cc(C)cc(CC2CC(=O)N(c3ccc4c(c3)OCCO4)C2=O)c1 (stereo not given)
  Vero viability = 105.5%

> CCN(CC)c1ccc(C2C3CCCCC3(O)CCN2CC(=O)Nc2ccccc2)cc1 (stereo not given)
  Vero viability = 95.8%

> N#C/C(=C/c1cc(Br)cs1)C(=O)NCC1CCCO1 (stereo not given)
  Vero viability = 99.1%

> COCCn1cc(C(=O)NCc2cccs2)c2c3ccccc3n(C)c2c1=O
  Vero viability = 98.5%

> O=C1CN(C(=O)COC(=O)CCSc2ccccc2Cl)c2ccccc2N1
  Vero viability = 94.5%

> CC(C(=O)O)N1C(=O)/C(=C/C=C/c2ccco2)SC1=S (stereo not given)
  Vero viability = 101.1%

> COc1cc(CNc2ccc3[nH]c(=O)[nH]c3c2)cc(Cl)c1OCC(=O)NC(C)(C)C
  Vero viability = 107.4%

> O=C(O)Cc1ccc(C(=O)c2ccccc2)s1
  Vero viability = 96.4%

> COc1ccccc1NC(=O)C12CC3CC(C1)CC(c1ccc(C)cc1)(C3)C2
  Vero viability = 99.6%

> Cc1nc2scc(-c3ccccc3)c2c(=O)n1/N=C/c1ccco1
  Vero viability = 96.4%

> O=C(NCc1cccnc1)C1c2ccccc2C(=O)N1C1CCCC1 (stereo not given)
  Vero viability = 93.2%

> COc1ccc(/C=C(\NC(=O)c2ccc(OCC(C)C)cc2)C(=O)OCc2ccco2)cc1
  Vero viability = 90.6%

> O=C1CN(C(=O)COC(=O)c2oc3ccccc3c2COc2ccccc2)c2ccccc2N1
  Vero viability = 93.1%

> CCN(CC)CCN=CC1=C(O)CNC1=O
  Vero viability = 92.8%

> COc1ccc(NC(=O)C2CCCN2S(=O)(=O)c2cccc3cccnc23)c(OC)c1 (stereo not given)
  Vero viability = 89.6%

> CCOC(=O)CC1Sc2ccccc2NC1=O (stereo not given)
  Vero viability = 86.3%

> CC(C)(CS(=O)(=O)[O-])NC(=O)CC[N+](C)(C)CCO
  Vero viability = 90.6%

> Cc1cc(C)nc(N2CCC(C(=O)O)CC2)n1
  Vero viability = 92.6%

> O=C(c1cnn2c(C(F)F)cc(C3CC3)nc12)N1CCc2ccccc2C1
  Vero viability = 94.5%

> CCOc1cc(C(=O)Nc2cc(C)ccn2)cc(OCC)c1OCC
  Vero viability = 100.8%

> CC(C)c1ccccc1N1CC(C(=O)O)CC1=O (stereo not given)
  Vero viability = 99.6%

> CCC(c1nnnn1Cc1ccco1)N(Cc1ccccc1OC)Cc1cc2cc(C)ccc2[nH]c1=O (stereo not given)
  Vero viability = 91.8%

> O=C(CCC(=O)OCC(=O)c1ccc(F)cc1)NC1CCCCC1
  Vero viability = 106.8%

> O=C(NC1CCCC1)c1ccc(CNc2c(N3CCOCC3)c(=O)c2=O)cc1
  Vero viability = 100.8%

> Cc1cccc(N/C=C/C(=C(C#N)C#N)N(C)C)c1
  Vero viability = 99.3%

> CCOc1cc(S(=O)(=O)N(CC)CC)c(OCC)cc1-n1cnnn1
  Vero viability = 95.5%

> Cc1ccc(N(CN2C(=O)C3CC=CCC3C2=O)C(=O)c2ccco2)cc1Cl (stereo not given)
  Vero viability = 93.2%

> CC(=O)N1CCc2cc(S(=O)(=O)NCCC(=O)Nc3cccc(C)c3C)ccc21
  Vero viability = 98.5%

> O=S(=O)(N1CCCCC1)N1CCN(c2ccccc2F)CC1
  Vero viability = 97.8%

> O=C(Oc1cccnc1)c1ccc(Cl)cc1
  Vero viability = 94.4%

> Cc1sc2ncnc(OCC(=O)NCC3CCCO3)c2c1C (stereo not given)
  Vero viability = 96.7%

> CCCNC(=O)COC(=O)c1ccccc1OCc1ccc(Cl)cc1
  Vero viability = 101.9%

> CCOC(=O)CSc1nc2c(sc(=S)n2-c2ccccc2OC)c(=O)n1Cc1ccco1
  Vero viability = 92.6%

> COCCn1nnnc1C(c1cccs1)N1CCN(c2cc(C)ccc2C)CC1 (stereo not given)
  Vero viability = 94.7%

> COc1ccccc1C(=O)Nc1cccc(-c2cn3ccsc3n2)c1
  Vero viability = 91.3%

> COc1cccc(-n2c(Cc3cc(=O)[nH]c(=O)[nH]3)nnc2SCC(=O)NC2CCCC2)c1
  Vero viability = 94.7%

> Cc1cccc(C)c1NC(=O)CSc1nnc(-c2ccco2)c(-c2ccco2)n1
  Vero viability = 96.3%

> Cc1cc(-n2c(C)cc(C(=O)COC(=O)CN=C3NS(=O)(=O)c4ccccc43)c2C)no1
  Vero viability = 101.3%

> CCOC(=O)CC(=O)CSc1ncc(C(=O)OCC)c(N)n1
  Vero viability = 99.5%

> COc1ccc(N=CC2=C(O)CCCC2=O)cc1
  Vero viability = 97.5%

> CC1Cc2ccccc2N1C(=O)C1CCN(S(=O)(=O)Cc2ccccc2)CC1 (stereo not given)
  Vero viability = 94.6%

> CCCCc1ccc(-c2nc(N)n[nH]2)cc1
  Vero viability = 106.6%

> O=C(CSc1nccn1Cc1ccccc1)Nc1nccs1
  Vero viability = 95.5%

> Cc1ccc(C)c(NC(=O)CSc2ncnc3nc[nH]c23)c1
  Vero viability = 88.4%

> CCOc1cc(/C=C2/C(=O)N(c3ccccc3)N=C2C)ccc1OC(=O)c1ccco1
  Vero viability = 97.1%

> N#Cc1ccccc1NC(=O)CNc1ccc(Cl)c(C(F)(F)F)c1
  Vero viability = 103.2%

> COc1ccc(NC(=O)CN2CCN(c3ccc(F)cc3)CC2)cc1Cl
  Vero viability = 98.8%

> CCCCc1nccn1CCn1ccnc1CCCC
  Vero viability = 98.4%

> CC(C)N1CCC2(CC1)C(C#N)=C(N)NC(S)=C2C#N
  Vero viability = >40µM*

> Cc1ccc(SCCN2C(=O)NC(C)(C)C2=O)cc1
  Vero viability = 99.5%

> O=C1CC(Nc2ccc(N3CCOCC3)cc2)C(=O)N1c1ccccc1F (stereo not given)
  Vero viability = 96.7%

> COc1ccc(-n2c(Cc3cccn3C)nnc2SCC(N)=O)cc1
  Vero viability = 98.4%

> Cc1nn(-c2ccc(Cl)cc2)c2[nH]c(=O)c(CNCc3ccc4c(c3)OCO4)cc12
  Vero viability = 101.4%

Further compounds.
SMILES | Vero viability
CCCc1nc(SCc2cccnc2)c2c(=O)n(C)c(=O)n(C)c2n1 | 103.9%
O=C(NC1CCCCC1)c1sc(=S)n2c1[nH]c(=O)c1ccccc12 | 94.0%
O=C(Nc1ccc2oc(=O)ccc2c1)c1ccc(-c2ccc(Cl)cc2)o1 | 101.5%
COCC(=O)NCCc1nc2ccccc2[nH]1 | 97.9%
COc1ccc(C2C(C(=O)NCCN(C)C)c3ccccc3C(=O)N2C)cc1OC (stereo not given) | 95.7%
O=[n+]1c2c(n([O-])c3cc(F)c(F)cc31)CCCC2 | 92.2%
Cn1c(CSc2nnc(SCc3ccccc3)s2)nc2ccccc21 | 102.8%
COc1ccc(Oc2nc(C)cc(C)c2C#N)cc1 | 99.7%
CCC(C)NC(=O)Cc1cn(C)c2ccccc12 (stereo not given) | 96.1%
O=C(O)c1ccc(-n2c(-c3cc(-c4ccco4)[nH]n3)n[nH]c2=S)cc1 | 97.1%
CCC(CC)C(=O)Nc1cccc(C(=O)N2CCOCC2)c1 | 103.7%
COc1cccc(NC(=O)C2CCCN2C(=O)OCc2ccccc2)c1 (stereo not given) | 93.4%
O=C(c1cccnc1NCc1ccc(F)cc1)N1CCOCC1 | 94.4%
Cc1ccc(-n2c(SCC(N)=O)nc3c([nH]c4ccccc43)c2=O)cc1 | 88.0%
Cc1cc(O)c(C(C)C)cc1NC1=NS(=O)(=O)c2ccccc21 | 104.3%
CC(=O)N1CCc2cc(S(=O)(=O)NCCC(=O)Nc3cc(C)cc(C)c3)ccc21 | 93.3%
CCn1c(N)c(C(=O)NCc2ccc3c(c2)OCO3)sc1=S | 92.0%
COc1ccc(N(C(=O)c2ccco2)S(=O)(=O)c2cc(Cl)c(Cl)cc2Cl)cc1 | >40µM*
CCCN(CCC)CCCNc1ccc2nnc(-c3ccc(F)cc3)n2n1 | 91.2%
Cc1ccc(NC(=O)CSc2nnc(C3CCCCC3)n2N)cc1F | 95.5%

Molecules from the list above that contain a Cl atom, in the order listed:
SMILES | Vero viability
Cn1nc(-c2ccc(Cl)cc2)c2cc(C(=O)N3CCN(c4ccccc4)CC3)sc21 | 83.2%
COc1ccc(Cl)cc1N(C)C(=O)CCNC(=O)Cn1cnc2ccccc2c1=O | 92.5%
COc1ccc(C(=O)n2nc(-c3ccc(Cl)cc3)nc2N)cc1OC | 97.1%
O=c1c2ccccc2c(-c2ccccc2)nn1-c1cc(Cl)ccc1[N+](=O)[O-] | >40µM*
CC(C)(Oc1ccc(Cl)cc1)C(=O)NCc1ccco1 | 100.5%
O=C1CN(C(=O)COC(=O)CCSc2ccccc2Cl)c2ccccc2N1 | 94.5%
COc1cc(CNc2ccc3[nH]c(=O)[nH]c3c2)cc(Cl)c1OCC(=O)NC(C)(C)C | 107.4%
Cc1ccc(N(CN2C(=O)C3CC=CCC3C2=O)C(=O)c2ccco2)cc1Cl (stereo not given) | 93.2%
O=C(Oc1cccnc1)c1ccc(Cl)cc1 | 94.4%
CCCNC(=O)COC(=O)c1ccccc1OCc1ccc(Cl)cc1 | 101.9%
N#Cc1ccccc1NC(=O)CNc1ccc(Cl)c(C(F)(F)F)c1 | 103.2%
COc1ccc(NC(=O)CN2CCN(c3ccc(F)cc3)CC2)cc1Cl | 98.8%
Cc1nn(-c2ccc(Cl)cc2)c2[nH]c(=O)c(CNCc3ccc4c(c3)OCO4)cc12 | 101.4%
O=C(Nc1ccc2oc(=O)ccc2c1)c1ccc(-c2ccc(Cl)cc2)o1 | 101.5%
COc1ccc(N(C(=O)c2ccco2)S(=O)(=O)c2cc(Cl)c(Cl)cc2Cl)cc1 | >40µM*

Other entries follow:
SMILES | Vero viability
CC(=C/c1ccco1)/C=N/NC(=O)Cc1cccn1C | 96.5%
O=C(NCCCN1CCOCC1)c1ccc(Br)s1 | 96.8%
O=C(NCc1ccc(Cl)cc1)c1ccccc1Oc1ccccc1 | 102.0%
Cc1cc(C(=O)Nc2ccc(S(=O)(=O)Nc3onc(C)c3C)cc2)cs1 | 113.2%
CCOc1cc(Cl)c(S(=O)(=O)NCc2ccccn2)cc1Cl | 90.8%
Cc1ccc(-n2c(SCC(=O)NCC3CCCO3)nc3c(c2=O)SCC3)cc1 (stereo not given) | 97.0%
O=C(CSc1nnc(-c2ccc(F)cc2)o1)Nc1ccc(S(=O)(=O)N2CCCC2)cc1 | 100.3%
CN(C)S(=O)(=O)N1CCC(CCCC2CCN(S(=O)(=O)N(C)C)CC2)CC1 | 108.2%
CCN(CC)C(=O)c1sc(NC(=O)c2ccc3c(c2)OCO3)c(C#N)c1C | 96.9%
